Rce1 inhib: blocks yeast Ras-converting enzyme | Q03530 | yeast membranes, quenched prenylated peptide cleavage fluorescence | calls only | hit rate 0.27% among 290,000 | AID 2563;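 active = fall in fluorescence gain of 50% or more versus controls, with final raw signal at or below 3038400; inconclusive = same 50% fall but final raw signal above 3038400; inactive = fall in fluorescence gain under 50%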;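 also: plate controls were neutral control wells for no effect and wells lacking membranes for full effect; tested at 10 µM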
PABP polyA inh: PABP-poly(A) binding inhibition; inhibition, % at 35 µM; hit rate 1% among 290,000; PABP-poly(A) RNA binding, fluorescence polarization;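 active = 50% or more with normal probe brightness, or confirmed in later tests; inconclusive = above 50% with abnormal brightness, or retests that disagree; inactive = below 50% or failed in later tests; about a fifth of its hits are not listed in these tables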;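 also: calls also rest on retests at 20 µM and on dose response follow-up; controls were probe without protein and protein plus probe with vehicle; some compounds called inactive have numbers as strong as hits; many hits fall short of the cut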
Target sequence (P11940 whole entry, looked up): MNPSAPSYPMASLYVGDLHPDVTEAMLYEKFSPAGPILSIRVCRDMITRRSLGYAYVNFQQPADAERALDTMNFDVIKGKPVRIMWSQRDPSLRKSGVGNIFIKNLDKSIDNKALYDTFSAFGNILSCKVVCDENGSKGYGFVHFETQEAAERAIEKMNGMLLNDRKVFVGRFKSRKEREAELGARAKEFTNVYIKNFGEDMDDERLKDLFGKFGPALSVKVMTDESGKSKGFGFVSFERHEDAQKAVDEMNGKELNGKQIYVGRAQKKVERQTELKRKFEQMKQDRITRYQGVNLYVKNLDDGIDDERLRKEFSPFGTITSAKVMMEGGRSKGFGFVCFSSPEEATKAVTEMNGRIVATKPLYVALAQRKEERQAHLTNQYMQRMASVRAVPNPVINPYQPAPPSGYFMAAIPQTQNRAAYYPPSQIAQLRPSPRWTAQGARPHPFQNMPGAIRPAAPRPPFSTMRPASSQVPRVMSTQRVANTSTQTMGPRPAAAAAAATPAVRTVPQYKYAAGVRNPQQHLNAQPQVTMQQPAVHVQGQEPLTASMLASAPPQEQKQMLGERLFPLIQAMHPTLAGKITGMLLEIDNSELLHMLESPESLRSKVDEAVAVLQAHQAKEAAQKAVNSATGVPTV
CSC inhib: blocks cancer stem cells | inhibition, % at 7.5 µM | cancer stem cell-like cells viability, luminescence | hit rate 1.1% among 300,000;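 active = mean at 75% or more and at least half the replicates too; inconclusive = mean and replicates disagree; tested in HMLE shEcad cells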;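 also: 0% = median of negative and 100% = median of positive control wells; the first replicate is given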
MT1-MMP act inh: inhibitors of human MT1-MMP activation | P50281 | HT1080 RFP-PRO-GFP cells, GFP/RFP ratio fluorescence, overnight; percent of plate control window, DMSO zero | GFP/RFP ratio change, % at 20 µM | hit rate 0.061% among 360,000 | AID 651647;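 active = GFP/RFP ratio change of at least 30% with cell ATP level not reduced by more than half and red fluorescence within 50% of control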; also: strong numbers were not always called active
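Assay system: RFP-PRO-GFP reporter HT1080 cells; read-out basis: GFP/RFP fluorescence ratio; benchmarks: DMSO wells and RFP-L50D-GFP cells; doses: 20 µM single dose, 1% DMSO; schedule: overnight cell settling, then overnight compound exposure, 37 °C, 5% CO2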
Env fusion inh: blocks HIV Env-driven cell-cell fusion. inhibition, % at 12.3 µM. HeLa-JRFL Env/CEM21 cell fusion, luciferase. hit rate 1.1% among 360,000;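 active = mean replicate inhibition score of at least 50 and every replicate individually at or above 50; inconclusive = only one of the two criteria met; inactive = mean below 50 and not all replicates reaching 50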;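 also: 0% = plate neutral controls and 100% = maraviroc near 300 nM; one replicate is shown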
UUG fidelity: modulators of start codon recognition fidelity in yeast; S. cerevisiae UUG-firefly luciferase reporter, luminescence/redox ratio; activity score, % at 18.7 µM; hit rate 0.13% among 350,000; AID 602363;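 active = replicate mean at a twofold rise or more, about +100% in these data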;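 also: firefly luciferase made from a UUG start codon reports start codon fidelity; reporter light over untreated wells divided by growth signal over untreated wells; some hits fall short of that in this replicate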
eIF4H inh: inhibitors of RNA binding by human eIF4H; Q15056; eIF4H fluorescence polarization binding assay; inhibition, % at 35 µM; hit rate 0.94% among 290,000;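 active = 50% or more with normal probe brightness, or confirmed in later tests; inconclusive = above 50% with abnormal brightness, or retests that disagree; inactive = below 50% or failed in later tests; about a fifth of its hits are not listed in these tables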;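 also: calls also rest on retests at 20 µM and on dose response follow-up; 0% = protein and probe with vehicle and 100% = probe without protein; strong numbers were not always called active; many hits fall short of the cut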
eIF4H inh retest: second read-out of eIF4H inh, no call of its own (marks repeat the call); inhibition, %; compound at 20 µM; confirmation average;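 mean of two retest wells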
PABP polyA inh retest: further read-out of PABP polyA inh, marked with its call; inhibition, %; compound at 20 µM; confirmation repeats;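 mean of two retest wells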
MT1-MMP act inh RFP: also measured in MT1-MMP act inh; calls as there; RFP signal change, %; measured here: RFP expression control read;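 0 = vehicle wells; hits needed this value within 50% of zero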
The depositor's hits bear a star; i = inactive; ? = inconclusive; nt = no result given.

SMILES	Rce1 inhib	PABP polyA inh	CSC inhib	MT1-MMP act inh	MT1-MMP act inh RFP	Env fusion inh	UUG fidelity	eIF4H inh	others
COc1ccc([C@H]2N[C@]3(CCCN(Cc4ccco4)C3=O)[C@H]3C(=O)N(Cc4ccccc4)C(=O)[C@@H]23)cc1	nt	nt	nt	-2	1	-105	-8	nt
CN(Cc1cccc2cnccc12)C(=O)CCc1nnc(CCc2ccccc2)o1	i	1	-4	0	-3	29	nt	13
CCCCOc1ccc(CN2CCCCC2)cc1	i	-5	13	12	4	nt	nt	-13
CN(C)C(=O)COc1ccc2cc(-c3ccccc3)c(=O)oc2c1	i	4	-3	5	2	-30	-8	3
CN(C)CCn1c(COc2ccccc2)nc2ccccc21	i	nt	-18	6	2	8	nt	nt
CCOC(=O)c1c(/N=C/c2cccc([N+](=O)[O-])c2O)sc(C)c1C	i	-11	11	4	8	-17	-15	21
O=C(Cc1ccsc1)NNC(=O)c1cccc(Cl)c1	i	4	-13	0	1	-14	-12	-17
Cc1ccc2c(c1)C(=O)CC(c1ccc3c(c1)OCCO3)O2 (stereo unspecified)	i	-6	17	-5	-3	-12	-1	0
CC(C)(C)n1nnnc1CN1CCN2CCCC2C1 (stereo unspecified)	i	4	23	0	8	-29	-22	-1
OCCOCCOc1ccc(-c2nn[nH]n2)cc1	i	-6	0	0	1	-11	-7	2
N#C/C(=C/c1cn(CC(=O)O)c2ccccc12)C(=O)Nc1ccccc1	i	0	2	-1	0	8	nt	0
CCCCC(=O)Nc1nnn(CCC)n1	i	-12	nt	2	0	-19	-17	-4
O=C(O)C(C1CCCCC1)C1(O)CCCC1 (stereo unspecified)	nt	nt	nt	-2	1	-5	-19	nt
COc1cc(/C=C2/C(=O)NN(c3ccccc3)C2=O)cc(Br)c1O	i	?	-14	-1	2	7	-5	?
CCC(OC(=O)c1cc2sccc2n1C)C(=O)NCc1ccco1 (stereo unspecified)	nt	-10	-5	1	-2	nt	-16	5
O=C1CCc2cc(S(=O)(=O)NCCc3ccccc3)cc3c2N1CC3	i	nt	-9	1	1	-39	-5	nt
Cc1ccccc1-c1nc(NCCN(C)C)nc2ccsc12	nt	nt	nt	1	5	6	-15	nt
COc1ccccc1N1CCN(C2CC(=O)N(c3cccc(Cl)c3)C2=O)CC1 (stereo unspecified)	i	7	-20	3	4	-5	2	-7
COc1cccc(-c2noc(CCCC(=O)Nc3ccc(C(N)=O)cc3)n2)c1	i	-3	-18	4	1	-15	-12	19
CCCNC(=O)C1(C)CCN1C(=O)C/C=C/c1ccccc1 (stereo unspecified)	nt	nt	nt	5	7	0	-4	nt
CCOC(=O)N1CCN(C(=S)NC2CCCCC2)CC1	i	-7	-2	2	2	5	nt	-7
Cc1cccc(N2C(=O)CC(NNc3nc4ccccc4s3)C2=O)c1 (stereo unspecified)	i	6	-2	0	3	-9	nt	-14
O=C(OCCN1C(=O)c2ccccc2C1=O)c1cc(S(=O)(=O)N2CCOCC2)ccc1F	i	10	-13	-4	4	5	-4	3
COc1ccc(N(CCCN2C(=O)c3cccc4cccc(c34)C2=O)C(=O)c2cccnc2)cc1	i	13	-8	-2	-3	39	nt	2
O=C(CN(C(=O)c1csnn1)c1ccccc1F)NCc1ccc2c(c1)OCO2	i	4	12	-3	-5	-5	-5	13

New compounds follow.
SMILES	Rce1 inhib	PABP polyA inh	CSC inhib	MT1-MMP act inh	MT1-MMP act inh RFP	Env fusion inh	UUG fidelity	eIF4H inh	others
CCCCOP(=O)(OCCCC)C1(NS(=O)(=O)c2ccccc2)C=CC(=O)c2ccccc21 (stereo unspecified)	i	5	19	8	-3	nt	2	-12
CCOc1ccc(OCC)c(NC(=O)CN2CCN(c3cccc(C)c3C)CC2)c1	nt	0	4	-11	-19	nt	-1	13
COc1cc(CNC(=O)CCCC/C=C\C(C)C)ccc1O	i	7	14	nt	nt	nt	nt	2
CC1=CC(=O)C(C(C)C)=C/C1=C(\c1cc(C(C)C)c(OP(=O)(O)O)cc1C)c1ccccc1C(=O)O	i	38	101*	2	-2	41	3	46
CC1CCN(c2nc3c(c(=O)n(C)c(=O)n3C)n2CCSc2ncccn2)CC1	i	-6	-10	1	0	-65	-12	4
Cc1nnc(SCCn2c(N3CCCC(C)C3)nc3c2c(=O)[nH]c(=O)n3C)s1 (stereo unspecified)	i	-6	-3	-8	-7	-162	-11	97	eIF4H inh retest=-2;PABP polyA inh retest=0
Cc1cc(NC(=O)c2nn(C)c(C)c2Br)no1	i	0	4	1	3	-8	-8	11
CNCCCOc1cc(C)cc(C)c1C	i	-2	-14	5	5	19	5	1
Nc1o[nH]c(=O)c1Cc1ccccc1	i	0	nt	-5	1	-14	-18	-11
O=C(Nc1nccs1)c1ccc2ccccc2c1	i	11	nt	4	1	-201	-27	-7
Cc1csc(NC(=O)CN2C(=O)c3ccccc3C2=O)c1C(N)=O	i	3	-18	-1	-1	15	-15	-4
COC(=O)CCCCCN1C(=O)NC(c2ccc(-c3ccccc3)cc2)C(C(=O)OCc2ccccc2)=C1C (stereo unspecified)	i	-4	14	nt	nt	35	nt	-10
CN(C)S(=O)(=O)c1c(Cl)cccc1Cl	i	-3	8	12	7	-40	-9	-2
Cc1ccc(-n2c(=O)[nH]c3c(C(N)=O)nc(-c4ccc(C)o4)nc32)cc1	i	-2	-10	-2	-2	nt	-6	0
Cc1cc(N2CCN(S(=O)(=O)c3ccc(Br)cc3)CC2)n2ncnc2n1	i	-14	-10	0	-2	-5	nt	-7
CCOC(=O)n1c(=O)n(Cc2ccc(F)cc2)c2ccccc21	i	36	0	-3	-2	9	nt	2
Cc1ccc(-c2c(C(=O)N/N=C/c3sccc3C)nnn2-c2nonc2N)cc1	i	1	-9	-3	-2	-4	-1	6
O=C(NC1CCCCC1)c1cnn2c(C(F)(F)F)cc(-c3ccco3)nc12	i	3	-6	-5	-11	20	-8	9
COCCNc1nnc(SCC(=O)NNC(=O)c2ccccc2)s1	i	28	nt	3	6	7	nt	5
CCOC(=O)C1CCCN(S(=O)(=O)c2ccc(OC)c3ccccc23)C1 (stereo unspecified)	i	6	20	0	4	-50	-25	-11
Cc1nc(NCc2ccco2)c2c3c(sc2n1)CCC3	i	10	2	5	1	nt	-8	3
O=C(Nc1cc(=O)c2ccccc2o1)N1CCOCC1	i	-14	-5	3	1	-63	-13	-5
CCCCn1c(=O)[nH]c(=O)c2c1nc(-c1ccc(-c3ccccc3Br)o1)n2CC	i	2	-8	0	8	nt	nt	3
COc1ccc(CCC(=O)NNC(=O)Nc2cccc(Cl)c2)cc1	i	-2	-8	-2	3	8	-11	-3
O=C(CCl)NCCCCCCCCCNC(=O)CCl	i	-14	10	-4	-4	-3	nt	-4

Next section:
SMILES	Rce1 inhib	PABP polyA inh	CSC inhib	MT1-MMP act inh	MT1-MMP act inh RFP	Env fusion inh	UUG fidelity	eIF4H inh	others
Cc1ccc(OCCCC(=O)N(C)CC(=O)Nc2ccccc2Cl)cc1	i	nt	-5	-2	1	4	1	nt
Cn1c(-c2ccccc2)cc(=O)cc1-c1ccccc1	nt	nt	nt	2	8	-5	-32	nt
Cc1ccc(S(=O)(=O)N2CC(O)CC2C(=O)O)cc1 (stereo unspecified)	i	1	2	3	3	13	-15	-2
Brc1ccc(OCc2nnc(SCC3CCCCC3)o2)cc1	i	-2	42	3	5	-24	-22	-6
CCCN1C2=NCCN2c2cc(C)c(C)cc21	i	0	14	4	3	nt	-23	4
COc1ccccc1CNC(=O)c1ccccc1NC(=O)C1=C(C)OCCS1	i	5	-5	-1	1	4	-12	-12
Cc1sccc1/C=N/NC(=O)c1cccc2ccccc12	i	4	5	4	0	16	-15	-6
Cc1ccc(NC(=S)NNC(=O)c2c([N+](=O)[O-])c(C)nn2C)cc1	i	8	8	-1	2	-29	-13	6
Nn1cnnc1SC1CCCCC1NS(=O)(=O)c1ccccc1 (stereo unspecified)	i	1	-15	nt	nt	nt	-6	-7
Cc1c(=O)n(OCc2ccc(Cl)cc2)c2ccccc2[n+]1[O-]	i	-1	-2	-17	-1	-6	nt	-16
O=C(COC(=O)C1CCN(S(=O)(=O)c2cc([N+](=O)[O-])ccc2Cl)CC1)Nc1ncc(Cl)cc1Cl	i	39*	-2	-5	8	-2	nt	70*	eIF4H inh retest=68*;PABP polyA inh retest=60*
COc1ccccc1-c1cccc([C@@H]2C[C@H]3[C@H](CON3C)CN2C(=O)C(C)(C)C)c1	nt	nt	nt	4	2	-18	8	nt
COc1cc2ncnc(NCc3ccccc3)c2cc1OC	i	7	38	0	-3	nt	4	-10
CCN1C(=O)[C@H]2[C@@H](c3ccc(SC4CCCCC4)c(OC)c3)N3CCCC[C@@]3(C(=O)OC)[C@H]2C1=O	i	nt	26	4	-2	7	-11	nt
Cc1ccc(CNC(=O)c2ccc(Cn3nc(C)cc3C)o2)cc1	i	6	-3	4	3	4	-15	-12
Cc1ccccc1N=C1NC(=O)/C(=C/c2cccn2C)S1	i	-9	-2	-44	-4	4	nt	1
S=c1nc(-c2ccccc2)[nH]c2ccc(Br)cc12	i	-5	0	1	-3	-25	nt	-2
C(=C\c1ccc2ccccc2n1)/c1ccccc1	i	12	24	4	0	-162	-80	-4
Cc1noc(/C=C/N(C)C)c1S(=O)(=O)N1CCN(c2ccccc2)CC1	i	3	nt	2	1	8	-16	-2
COc1cccc(-c2cn(C[C@H]3CC[C@@H]([C@@H]4CC[C@H](Cn5cc(-c6cccc(OC)c6)nn5)O4)O3)nn2)c1	i	-6	5	0	-1	0	6	11
C=C(C)C(=O)Nc1cccc(C2=NOC3(C2)C[C@H](C(N)=O)N(C(=O)COc2ccc(Cl)cc2)C3)c1 (stereo partly specified)	i	50*	3	2	-1	2	6	86*	eIF4H inh retest=100*;PABP polyA inh retest=86*
CNc1cncc(-c2ccccc2NC(C)=O)n1	nt	nt	nt	-2	1	-2	-16	nt
Cc1cccc(Cn2c(C(C)O)nc3ccccc32)c1 (stereo unspecified)	i	-8	-15	-7	-1	-362	-19	-6
CCC(=O)N1CCc2cc(S(=O)(=O)NCCC(=O)N3CCN(Cc4ccccc4)CC3)ccc21	i	-1	3	1	-5	20	-24	-12
COc1ccc2cc(OCC(=O)NNC(=O)Nc3ccc(F)cc3)ccc2c1	i	3	nt	3	3	5	-15	9

Further results:
SMILES	Rce1 inhib	PABP polyA inh	CSC inhib	MT1-MMP act inh	MT1-MMP act inh RFP	Env fusion inh	UUG fidelity	eIF4H inh	others
Nc1ncc2c(n1)-c1cc(Cl)ccc1SC2	i	5	-4	-3	-2	3	nt	4
CCOC(=O)C1=CCN(S(=O)(=O)c2ccccc2Cl)C1c1cccc(Br)c1 (stereo unspecified)	nt	nt	nt	-1	-7	30	-5	nt
CCn1c(-c2cc(-c3ccc(OC(C)C)cc3)nc3ccccc23)n[nH]c1=S	i	7	-9	-3	-10	nt	-15	-4
Cc1cccc(CN2CCSc3sccc3C2=O)c1	i	-5	-9	-2	1	5	nt	-1
COc1cc(/C=C\C(=O)NCc2ccc3c(c2)cc(C)n3C)cc(OC)c1OC	i	-1	nt	25	29	-102	13	101	eIF4H inh retest=29;PABP polyA inh retest=30
CN(Cc1ccccc1)C(=O)CN1C(=O)COc2ccc(S(=O)(=O)N3CCCC3)cc21	i	1	-13	0	5	5	-2	-14
CCN(CC)C(=O)CSc1nc(COc2ccccc2)nc2ccccc12	i	-2	-7	1	-5	2	-14	-5

Screening results deposited in PubChem BioAssay by several laboratories.

An unsorted share of the library. Share with any hit: about 2.9%.
